D2 agonist: human D2 receptor agonism in beta-arrestin assay. DiscoveRx PathHunter D2 beta-arrestin, luminescence, 90 min; 100% = 57 uM dopamine signal. activation, % (test concentration not listed). actives 0.084% (n = 360,000). AID 624465; in the data active = activation above about 40%; inconclusive = about 15% to 40%; inactive = below about 15%; further: compound concentration not given in the record; the text of the record calls up to 30% inactive
Target sequence (P14416 whole entry, looked up): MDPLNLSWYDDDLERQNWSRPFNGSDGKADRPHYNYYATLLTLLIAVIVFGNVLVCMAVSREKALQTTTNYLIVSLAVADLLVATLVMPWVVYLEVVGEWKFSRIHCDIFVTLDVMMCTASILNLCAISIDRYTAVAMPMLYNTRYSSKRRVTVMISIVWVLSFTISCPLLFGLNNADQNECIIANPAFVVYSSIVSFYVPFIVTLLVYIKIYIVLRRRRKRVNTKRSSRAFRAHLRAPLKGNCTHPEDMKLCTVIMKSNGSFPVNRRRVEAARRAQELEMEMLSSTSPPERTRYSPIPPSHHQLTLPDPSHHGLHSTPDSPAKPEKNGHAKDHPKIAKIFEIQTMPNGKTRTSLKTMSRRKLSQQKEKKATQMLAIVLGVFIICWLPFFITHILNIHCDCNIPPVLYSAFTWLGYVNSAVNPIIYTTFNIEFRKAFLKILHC
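DiscoveRx PathHunter D2 beta-arrestin cells (2,100/well) attached overnight, then compound-stimulated 90 min at 37 C in HBSS/10 mM HEPES/0.1% Tween-20 buffer; beta-galactosidase complementation read by luminescence after 1 h at ambient temperature. Dopamine 57 uM final (EC100) as control.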
gsp antagonist: antagonists of gsp mutant (McCune-Albright syndrome). gsp-mutant cells, cAMP HTRF, 30 min; control for the full effect not named in the record. Potency, µM (highest dose often 76.9 µM), without a hit: top-dose activity change, negative = inhibition, actives largely listed as inhibitors. actives 0.4% (n = 340,000); active = falling curve of any shape with a large fitted effect; inconclusive = falling curve, mostly with a smaller effect; inactive = flat or rising curve; cell line not stated here;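 further: intracellular cAMP measured with PDE inhibitor Ro 20-1724 present during compound exposure; potency means the concentration at half of the fitted maximal effect; on the % scale 0 is the no-effect control and ±100 the full control effect; nearly all actives have a fitted effect of over 65% in size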
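Cells in G418 medium, seeded 16-24 h, 37C; buffer exchange to DPBS + 1 mM CaCl2, 0.5 mM MgCl2, 0.05% BSA; cpds in DMSO + […] (300 uM stock), 30 min 37C; HTRF cAMP detection.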
PINK1 modulator: PINK1 expression modulation; actives 0.2% (n = 410,000); PINK1 immunofluorescence, high-content cytometry, 24 h; Potency, µM (highest dose often 76.6 µM), inactives show at the highest dose activation (PINK1 increase), usual class: activators; active = well fitted activation curve with a large enough effect; inconclusive = small, poorly fitted or top-dose-only effect; inactive = flat fitted curve, though single readings scatter; cell line not stated here;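 further: potency means the concentration at half of the fitted maximal effect; % of control where 0% means no effect; nearly all actives have a fitted effect of over 65% in size; a mitochondrial uncoupler was the plate control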
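Compound titrations (5 concentrations, 24 h) on a stable cell line; DMSO and CCCP controls. Endpoint: fixed-cell PINK1 immunofluorescence with mitochondrial, cell and nuclear markers, scanned by microplate cytometer.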
Sfp PPTase inh: blocks B. subtilis Sfp PPTase activity; Biochemical Sfp PPTase activity, qHTS; Potency, µM, inactives show max response, negative = inhibition, most hits filed as inhibitors; AID 1490; actives 3.5% (n = 310,000); active means well fitted inhibition curve with a large enough effect; inconclusive means small, poorly fitted or top-dose-only effect, or another doubt; inactive means no such curve, though single readings can be large or run the other way;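 further: the enzyme is Sfp with the accession as filed and its product quenches rhodamine fluorescence; potency means the concentration at half of the fitted maximal effect; 0% = enzyme reaction without inhibitor and -100% = no enzyme wells; top concentration of the series not given in the record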
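Fluorescence-quenching assay with 15 nM Sfp, 5 uM rhodamine-CoA and 12.5 uM BHQ-2-labelled ybbR peptide in pH 7.6 Hepes/MgCl2 buffer. Enzyme was pre-incubated with compound for 15 min at room temperature. Rate was taken from the 30-min fluorescence change (525/598 nm).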
Menin MLL FP FL: inhibitors of human menin-MLL interaction, wild-type MLL peptide. 290,000 tested, under 10 active. AID 1766. Fluorescence polarization, fluorescein-MLL peptide displacement from menin. FP activity change, % at 61.4 µM; inconclusive = falling polarisation curve, or a change in total fluorescence; inactive = total fluorescence flat and polarisation flat or rising; no compound was filed as active; the % refers to the polarisation; negative = inhibition;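 further: % of control where 0% means no effect; inhibitors lower the polarisation; unlabelled MLL peptide was the positive control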
gsp agonist: gsp mutant agonism; AID 624287; gsp mutant cells, cAMP HTRF, 30 min; control for the full effect not named in the record; actives 0.13% (n = 340,000); Potency, µM (titrated, usually from 76.9 µM), without a hit: at the highest dose activation (cAMP increase), usual class: activators; active = well fitted activation curve with a large enough effect; inconclusive = small, poorly fitted or top-dose-only effect, or another doubt; inactive = no such curve, though single readings can be large or run the other way; cell line not stated here;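 further: phosphodiesterase inhibitor Ro 20-1724 added with compounds to block cAMP breakdown; potency means the concentration at half of the fitted maximal effect; nearly all actives have a fitted effect of over 60% in size; about a fifth of the inactives were tested at one dose only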
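Cells stably selected in G418 were plated at 2000/well, grown 16-24 hr, then given compounds in DMSO with the PDE inhibitor […] (300 uM solution added) for 30 min at 37C; cAMP was read by HTRF.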
ClpP mod: qHTS Assay for Activators of ClpP; actives 1.9% (n = 340,000); AID 651965, 2013; ATP-dependent Clp protease proteolytic subunit (Bacillus subtilis (strain 168)), P80244; Potency, µM (highest dose often 57.5 µM), for inactives: top-dose activity change, negative = active; purified B. subtilis ClpP, FRET peptide cleavage, 20 min; active = well fitted falling curve with a large enough effect; inconclusive = small, poorly fitted or top-dose-only effect; inactive = no such curve, though single readings can be large or run the other way; further: potency means the concentration at half of the fitted maximal effect; the source files actives as falling curves though it sought activators and does not explain the sign; nearly all actives have a fitted effect of over 65% in size; many hits overshoot -100%
Target sequence (P80244 whole entry, looked up): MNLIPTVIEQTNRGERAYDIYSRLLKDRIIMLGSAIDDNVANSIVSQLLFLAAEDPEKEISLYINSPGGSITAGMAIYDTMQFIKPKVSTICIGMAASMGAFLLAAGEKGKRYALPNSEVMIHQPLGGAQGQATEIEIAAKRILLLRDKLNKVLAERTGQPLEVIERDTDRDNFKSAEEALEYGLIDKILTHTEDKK
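Buffer: 100 mM Tris/HCl pH8, 100 mM KCl, 0.05% low protease BSA, 2.5% glycerol, 0.01% Tween-20. ClpP 10 microg/mL final; 20 min RT; delta FRET normalized to ADEP and DMSO controls.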
Starred values were filed as active, the others as inactive; ? = inconclusive; / = no result given; & = joins results of further samples; [ ] = remark or other dose.

SMILES	D2 agonist	gsp antagonist	PINK1 modulator	Sfp PPTase inh	Menin MLL FP FL	gsp agonist	ClpP mod
CN(C)c1nnc(-c2ccc(Cl)cc2)o1	1.2	4%	-0.5%	15%	-0.1	-5%[15.4 µM]	0.6%
Cn1nc(CC(=O)N2CCN(c3ccccc3)CC2)c2ccccc2c1=O	-2.3	-6%	-2.6%	-19%	-0.6	7%	-3.1%
O=C(COC(=O)COc1ccc(Cl)cc1Cl)Nc1cccnc1Cl	-0.1	4%	0.3%	-20%	0.9	14%[15.4 µM]	-3.1%
CCOC(=O)c1c(S(=O)(=O)NCC(=O)NCc2ccccc2Cl)c(C)n(C)c1C	12	5%	0.4%&2.2%	16%	3.0	-39%[inhibitor]	-3.4%&2.2%
O=C(O)CCC(=O)N1N=C(c2cccs2)CC1c1ccc(Br)cc1 (stereo not drawn)	-5.6	?	-0.1%	3%	-4.3	?	-29%
c1ccc(Oc2ncnc3ccccc23)cc1	-3.9	3%	-2.5%	/	/	2%	/
Cc1sc(NC(=O)CSc2nc(N)n(CC(=O)c3ccccc3)n2)c(C#N)c1C	2.2	6%	1.7%[38.3 µM]	11%	2.7	-1%	-0.7%
O=C(NCCc1ccccc1F)c1[nH]c(C(F)(F)F)nc1-c1ccccc1	-1.5	/	2.8%	/	/	/	-1.1%
CC(C)OP(=O)(OC(C)C)C(Nc1cccc(C(=O)O)c1)c1ccccc1 (stereo not drawn)	-0.5	1%	2.0%	1%	1.4	11%[15.4 µM]	/
Cc1cc(NC(=O)CCC(=O)N(CC(=O)NC2CCCC2)Cc2ccccc2Cl)no1	-3.3	-8%	0.1%	14%	2.1	16%	1.5%
COc1ccc(Cn2cnc3c4cc(F)ccc4n(C)c3c2=O)cc1	-8.1	-10%	3.9%	22%	2.6	0%[15.4 µM]	-1.2%
Cn1c(CNC(=O)c2ccc3c(c2)OCO3)nnc1SCC(=O)Nc1ccccc1F	0.1	-1%	-2.2%	16%	4.3	-11%	/
Cc1cccc(C)c1NC(=O)CCCSc1nnc(N)s1	-4.4	1%	-0.4%	1%	-2.1	8%[15.4 µM]	0.0%
O=C(Nc1ccc(N2CCOCC2)cc1)c1cnccn1	-0.6	-5%	1.7%	-4%	9.1	-1%[15.4 µM]	/
O=C(NC(=S)NCc1ccco1)c1ccccc1	-2.3	7%	1.8%	10%	-3.8	0%[15.4 µM]	/
CC(=O)N(C(C)=O)C1=C(C#N)C2(CCCCC2)Cc2ccccc21	0.9	-6%	26%	16%	-0.7	3%	-26%
O=C(Nc1cccc(C(F)(F)F)c1)c1cc(S(=O)(=O)N2CCCCC2)ccc1N1CCOCC1	-5.1	4%	3.1%	16%	1.0	-1%	-22%
COC(=O)C1=C(C)Nc2nnnn2C1c1cc(OC)ccc1OC (stereo not drawn)	-1.1	-2%	1.2%[38.3 µM]	2%	-1.0	-12%	-1.1%
CC1CN(c2nc3c(c(=O)n(Cc4ccc(Cl)cc4)c(=O)n3C)n2C)CC(C)O1 (stereo not drawn)	3.7	-18%	-0.7%[38.3 µM]	-2%	1.5	3%	-1.7%
COc1cc(NC(=O)c2n[nH]c(=O)c3ccccc23)cc(OC)c1	-3.2	-4%	-0.9%	19%	1.9	-37%[inhibitor]	-3.2%
C/C(=N\NC(=O)c1ccccc1)c1ccc(N2CCCCC2)cc1	-3.7	0%	4.0%	5%	1.0	1%	-2.8%
Cc1ccc(/C(=N/Nc2ncnc3ccccc23)C(=O)O)cc1	-5.4	-8%	1.3%	-26%	6.0	-1%[15.4 µM]	/
O=C(c1ccccc1)N1CCN(S(=O)(=O)N2CCOCC2)CC1	-5.1	11%	1.1%	12%	-1.3	-4%[15.4 µM]	/
COCCNC(=O)c1cc2sccc2n1C	2.0	4%	1.5%	8%	-7.3	-19%	-2.8%
CN(Cc1ccc(F)cc1)C(=O)CNC(=O)c1cccs1	0.1	0%	1.0%	/	/	41%	-1.1%
O=C(N/N=C/c1ccccc1)c1ccc(N2CCOCC2)c([N+](=O)[O-])c1	-1.9	9%	-1.6%	-10%	2.8	15%	0.8%
CC1CC(C)CN(C(=O)COC(=O)c2cccc([N+](=O)[O-])c2)C1 (stereo not drawn)	-1.5	9%	0.2%	19%	-2.1	?	0.8%
COc1ccc(NC(=O)CN2CCN(c3ccccc3F)CC2)cc1	-1.2	-6%[15.4 µM]	-2.1%	6%	1.6	-5%	-0.5%
COc1ccc(CCNC(=O)NC(C(F)(F)F)C(F)(F)F)cc1OC	-4.6	8%	0.3%	18%	-0.5	29%	0.0%
CCOc1ccc(NC(=O)COC(=O)COc2cccc3c2OC(C)(C)C3)cc1	-2.8	-14%	-2.5%	11%	0.3	-1%	-23%
COC(=O)c1c(NC(C)=O)sc2c1CCN(Cc1ccccc1)C2	-0.3	-2%	2.6%	-7%	-2.8	?	-0.3%
CCCCNC(=O)C1CCCN1C(=O)Nc1cccc(OC)c1 (stereo not drawn)	-2.2	8%	-0.4%	-5%	-2.6	9%	-5.2%
Clc1ccccc1CSc1nc2ccncc2[nH]1	1.2	0%	2.6%	56µM*	3.4	-16%	-2.3%
COc1ccc(OC)c(-n2c(SCC(=O)NCC3CCCO3)nc3ccccc3c2=O)c1 (stereo not drawn)	6.2	6%	1.6%	/	/	24%	-0.9%
Cc1cccc(NC(=O)C(C)SCc2nc3sc(C)c(C)c3c(=O)[nH]2)n1 (stereo not drawn)	-4.5	-2%	3.4%	-19%	15	?	-23%
COc1cccc2c1cc1c(=O)n(CC(=O)N3CCCC3)nc(C)n12	-1.0	0%	-0.4%	/	/	-7%[15.4 µM]	/
CN(C)c1ccc2c(O)cc(=O)n(C)c2c1	2.0	-7%	-3.9%[38.3 µM]	-29%	0.3	11%	?
CCOC(=O)c1cnn(-c2nc3c(C)cccc3s2)c1C	0.6	2%	2.3%	3%	3.4	9%	-3.1%
C/C(=N\Nc1ccc(S(N)(=O)=O)cc1[N+](=O)[O-])c1ccco1	-0.7	1%	-3.3%	-27%	6.7	-1%[15.4 µM]	/
O=C(NNC(=O)c1cnccc1C(F)(F)F)c1ccccc1	-1.2	17%	1.9%	7%	0.8	-3%[15.4 µM]	0.8%
Cc1ccc(NC2=NCC(=O)N2CCc2ccccc2)cc1C	-3.0	10%	-1.9%	3%	-2.6	-33%	-3.0%
CCOc1ncccc1C(=O)OCC(=O)NC(=O)NC(C)C	11	-5%	-0.5%	20%	6.9	-23%	1.3%
O=C(Nc1ccc([N+](=O)[O-])cc1)C1C(c2ccccc2)=C1c1ccccc1	-1.2	9%	19%[38.3 µM]	19%	-0.4	8%	0.9%
O=c1c([N+](=O)[O-])cc(C(F)(F)F)cn1Cc1c(Cl)cccc1Cl	2.5	4%	2.3%	12%	3.4	-32%[inhibitor]	-4.4%
COc1ccc(N2CCN(Cc3nc(-c4ccccc4)no3)CC2)cc1	-0.9	-41%	1.7%	15%	-0.8	16%[15.4 µM]	/
CC(C)c1ccc(NC(=O)c2ccccc2NC(=O)C2CC=CCC2C(=O)O)cc1 (stereo not drawn)	-0.7	-24%	1.2%	9%	/	8%	-10%
Cc1cccc(C(=O)NCC(c2ccco2)N(C)C)c1 (stereo not drawn)	-1.6	2%	-0.7%	8%	-2.2	-1%	/
COc1ccc(N=C2NC(=O)/C(=C\C=C\c3ccccc3)S2)cc1	-5.0	-12%	17%	8%	-1.7	16%[15.4 µM]	-0.4%
COc1ccc(S(=O)(=O)N2CCN(c3ccc4nnc(-c5ccc(F)cc5)n4n3)CC2)cc1	-4.5	-27%	2.6%	5%	0.1	-21%	-28%
CCCc1nc2sc3ccccc3c(=O)c2c(=O)n1Cc1ccccc1	-1.3	2%	9.0%	/	/	-53%[15.4 µM]	/
CCN1CCN(CC(=O)c2cc(Cl)ccc2Cl)CC1	0.1	14%	0.6%	-12%	-14	-21%	-0.3%
CCN(c1ccc(NC(=O)COC(=O)c2ccc(S(=O)(=O)N3CCCC3)cc2)cc1)C(C)C	-2.1	-10%	0.6%[38.3 µM]	-6%	-0.8	?	2.0%
COc1ccc(CNC(=O)CN(Cc2ccccc2OC)C(=O)c2csnn2)cc1	-5.6	-3%	-2.3%	13%	6.5	-6%	/
c1ccc(-c2cnc(C3CCCCC3)o2)cc1	-1.7	-3%	5.2%	/	/	5%	/
NC(CO)c1csc(NC(=O)Nc2cccc(Cl)c2)n1 (stereo not drawn)	6.9	/	-0.9%	/	/	/	6.3%
COc1ccc(-n2nc(C(=O)NCC(=O)N3CCCCCC3)c3ccccc3c2=O)cc1	2.4	-11%	0.4%	7%	-2.7	9%[15.4 µM]	/
O=c1[nH]c(N2CCN(c3ccccc3)CC2)nc2c1CCCC2	-2.8	-30%	0.1%	9%	-0.6	-37%[inhibitor]	-0.3%
COc1ccc(C(C)(O)c2nc(-c3ccoc3)cs2)cc1 (stereo not drawn)	-3.9	/	4.2%	/	/	/	0.9%
COc1ccc(S(=O)(=O)NCC2CCCO2)cc1Cl (stereo not drawn)	-0.9	5%	-3.6%	9%	1.0	-28%	-1.4%

Single records (already shown):
CCOc1ncccc1C(=O)OCC(=O)NC(=O)NC(C)C is listed with D2 agonist: 11; gsp antagonist: -5%; PINK1 modulator: -0.5%; Sfp PPTase inh: 20%; Menin MLL FP FL: 6.9; gsp agonist: -23%; ClpP mod: 1.3%
COc1ccc(-n2nc(C(=O)NCC(=O)N3CCCCCC3)c3ccccc3c2=O)cc1 is listed with D2 agonist: 2.4; gsp antagonist: -11%; PINK1 modulator: 0.4%; Sfp PPTase inh: 7%; Menin MLL FP FL: -2.7; gsp agonist: 9%[15.4 µM]; ClpP mod: /

Entries above shown as hits in Sfp PPTase inh:
| molecule | D2 agonist | PINK1 modulator | Sfp PPTase inh | Menin MLL FP FL | gsp agonist |
| --- | --- | --- | --- | --- | --- |
| Clc1ccccc1CSc1nc2ccncc2[nH]1 | 1.2 | 2.6% | 56µM* | 3.4 | -16% |

High-throughput results: PubChem BioAssay, National Center for Advancing Translational Sciences (NCATS)
